Bioassay records as filed in PubChem BioAssay.
ALR inh = blocks human ALR sulfhydryl oxidase activity; AID 485317; purified ALR, DTT oxidation, H2O2 HRP-luminol luminescence; 290,000 tested, 3.8% active; inhibition, % (test concentration not listed);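 active = mean and each replicate at 75% or more; inconclusive = only one of the two met; inactive = neither met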;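 note: stock transfer was 7.5 nL into about 7.5 µL; 0% = neutral wells and 100% = wells with inactivated enzyme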
Target sequence (P55789 whole entry, looked up): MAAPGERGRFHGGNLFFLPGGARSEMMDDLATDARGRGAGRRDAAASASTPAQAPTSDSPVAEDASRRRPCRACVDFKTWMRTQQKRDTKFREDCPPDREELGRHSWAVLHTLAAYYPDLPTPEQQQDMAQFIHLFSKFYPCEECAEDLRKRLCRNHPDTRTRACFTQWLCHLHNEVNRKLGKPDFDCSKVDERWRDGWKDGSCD
Beta apoptosis = beta cell apoptosis inhibition | INS-1E cytokine-induced death, ATP luminescence, 48 h; percent of positive-control rescue, neutral wells zero | protection from apoptosis, % (test concentration not listed) | 300,000 tested, 0.8% active;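 active = all replicates at 75% or more, or half of them and the mean; inconclusive = half reach 75% but not the mean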;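 note: 0% = cytokine-treated negative control wells and 100% = positive control rescue; higher means more ATP so stronger rescue from cytokine killing; wells of about 40 µL received 100 nL stock; the first replicate is given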
Calb FLC = affects C. albicans growth with fluconazole | C. albicans CaCi-2 (fluconazole-resistant clinical isolate) + fluconazole, Alamar Blue growth, 48 h | growth inhibition, % (concentration not given with the values) | 300,000 tested, 0.57% active | AID 1979;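 active = most replicates above 75%; inconclusive = exactly half above 75%; inactive = most below 75%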;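 note: all wells also contain fluconazole at 8 µg/ml as a sub-toxic cotreatment; 0% = median of DMSO wells and 100% = median of geldanamycin control wells; wells of about 8 µL received 7.5 nL stock; the first replicate is given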
Ecoli rRNA inh = inhibitors of bacterial rRNA selective over humanized ribosomes. E. coli WT GFP vs humanized-ribosome RFP mutants, fluorescence, 24 h; active compounds read low; DMSO median 0, no signal -100. GFP signal change (wild-type ribosome), % (test concentration not listed). 350,000 tested, 1.6% active;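 active = significant combined selectivity score with lowered wild-type GFP, culture density cut under 30%, mutant RFP and density less affected; inactive = any of these conditions unmet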; note: one replicate is shown; some compounds called inactive have numbers as strong as hits
LANA-H2A inh = blocks KSHV LANA binding to histone H2A/H2B | Q9QR71 | cell-free LANA-H2A/H2B peptide, fluorescence polarization | inhibition, % (concentration not given with the values) | 320,000 tested, 0.6% active; in the data active = inhibition mostly above about 10%, no sharp cut-off; inactive = mostly below about 6.7%;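 note: stock transfer was 7.5 nL into about 10 µL; 0% = median of vehicle wells and 100% = median of positive control wells; one replicate is shown; the record names a cut of 25% in any replicate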
B2AR ag = activates human beta-2 adrenergic receptor causing internalization. response, % (test concentration not listed). Am2.2-beta2AR cells, FAP receptor internalization, flow cytometry; reference of the scale not given here. P07550. 340,000 tested, 0.43% active;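 active = response above a set limit, near 3 SD of response in nonfluorescent compounds, cut at about 42% in these data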;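 note: stock transfer was 100 nL into about 11 µL; a reference agonist was the positive control; negative values mostly stem from fluorescent compounds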
Target sequence (P07550 whole entry, looked up): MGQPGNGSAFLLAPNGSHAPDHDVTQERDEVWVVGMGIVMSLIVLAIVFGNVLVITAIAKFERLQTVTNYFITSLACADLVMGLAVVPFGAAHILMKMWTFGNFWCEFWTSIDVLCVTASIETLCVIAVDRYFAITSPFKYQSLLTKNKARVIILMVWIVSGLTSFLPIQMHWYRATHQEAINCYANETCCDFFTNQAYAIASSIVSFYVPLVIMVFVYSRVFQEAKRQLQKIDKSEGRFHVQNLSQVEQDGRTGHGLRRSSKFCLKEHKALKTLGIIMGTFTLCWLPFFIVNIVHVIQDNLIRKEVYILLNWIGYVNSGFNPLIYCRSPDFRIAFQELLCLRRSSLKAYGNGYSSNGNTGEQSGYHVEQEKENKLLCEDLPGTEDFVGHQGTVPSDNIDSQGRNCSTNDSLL
A1 inh = inhibitors of the anti-apoptotic protein A1, read as caspase activation; caspase activation, % (no concentration beside the values); 330,000 tested, 0.066% active; AID 2462; MEF A1-2A-BIM cells, Caspase-Glo 3/7 luminescence, 3 h; percent of clofoctol response, vehicle zero;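 active = over half of replicate activation scores above 10%, or exactly half above 10 with the replicate mean above 10; inconclusive = replicate mean below 10 yet half the replicates above 10; inactive = over half of replicates below 10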;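 note: wells of about 30 µL received 50 nL stock; many hits fall short of the cut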
T cruzi repl = T. cruzi replication inhibition. T. cruzi beta-gal in NIH3T3, luminescence, 90 h. inhibition, % (no concentration beside the values). 300,000 tested, 1.4% active;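 active = mean inhibition across valid replicates above about 55%, limit read from the data; inconclusive = mean below that limit but half or more replicates reach it; inactive = mean below it, under half of replicates reach it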;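 note: signal also drops with host cell toxicity which is not excluded here; 0% = plate median of DMSO wells and 100% = zero luminescence signal; higher percent means less beta-gal luminescence so fewer parasites; stock transfer was 50 nL into about 50 µL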
Ecoli rRNA inh OD600 = further read-out of Ecoli rRNA inh, marked with its call; OD600 change, %; measured here: OD600 growth;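 optical density of the mix in the first replicate; 0 = DMSO median and -100 = no signal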
Ecoli rRNA inh RFP = second read-out of Ecoli rRNA inh, no call of its own (marks repeat the call); RFP signal change, %; measured here: RFP humanized mutant strains;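 first replicate; 0 = DMSO median and -100 = no signal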
Active calls of the source: *; i = inactive; ? = inconclusive; / = not tested or not shown. Some of the compounds tested; rates above refer to the full screens.

SMILES	ALR inh	Beta apoptosis	Calb FLC	Ecoli rRNA inh	Ecoli rRNA inh OD600	Ecoli rRNA inh RFP	LANA-H2A inh	B2AR ag	A1 inh	T cruzi repl
CCN(c1ccc(Cl)cc1)S(=O)(=O)c1nnc(NC(=O)C(C)C)s1	-6	-3	-4	7	10	1.3	4.0	3	1.0	-7
C[C@H](NC(=O)c1ccco1)C(=O)NC1CCCCCC1	1	-1	/	7	8	2.6	i	5	0.9	/
CC(C)(C)C1CCC(=NNC(=O)c2cc3c(s2)CCCC3)CC1 (stereo not drawn)	3	-8	6	0	18	3.5	3.8	1	0.1	-3
CSc1ccc(C(=O)C2CCCN(S(=O)(=O)N(C)C)C2)cc1 (stereo not drawn)	-2	-9	9	8	10	1.0	3.8	-7	2.7	2
CNC(=O)C1CC(=O)N(c2ccc(OCC(=O)Nc3ccc(OC)cc3)cc2)C1 (stereo not drawn)	-6	-3	/	0	2	2.3	/	-1	0.6	/
CCOC(=O)C1=C(CS(=O)(=O)c2ccc(F)cc2)NC(=O)NC1c1cc(OC)c(O)c(OC)c1 (stereo not drawn)	-11	-5	-4	-3	-1	-0.9	-0.1	-2	0.8	-5
Cc1ccccc1NC1=C(C(=O)c2ccccc2)N(C)S(=O)(=O)c2ccccc21	3	1	-1	/	/	/	0.3	12	-0.8	15
Cc1cc(OC(C)C(=O)NCC(O)c2ccccc2)c2c(C)cc(=O)oc2c1 (stereo not drawn)	1	-2	1	1	5	-0.4	1.3	2	0.4	-14
COc1ccccc1C(=O)COC(=O)c1ccc(Cl)nc1	0	1	/	-8	-19	-3.3	0.4	-2	2.4	/
Clc1ccc(-c2cc3ccccc3nc2N2CCCC2)cc1	-6	-2	-29	/	/	/	3.1	7	1.8	10
NC(=O)CC(NC(=O)c1ccccc1)c1ccc(NCc2ccc(F)cc2)c([N+](=O)[O-])c1 (stereo not drawn)	4	-5	2	/	/	/	-1.4	-3	0.2	0
CCCCCC(=O)Nc1ccc(S(=O)(=O)Nc2ccc(Cl)nn2)cc1	-6	-4	-12	-17	-24	-6.4	-3.0	3	-0.7	6
CCCCN(C)C(=O)CCCCn1c(=O)[nH]c2cc(OCC)c(OCC)cc2c1=O	/	1	?	/	/	/	0.9	-5	0.7	15
C=CCn1c(SCC(=O)NC2CCCC2)nnc1-c1ccncc1	3	1	-6	3	13	-1.5	4.2	-4	-0.4	6
CCOC(=O)c1sc(-c2ccccc2)cc1NC(=O)c1ccc(S(=O)(=O)N(CCOC)CCOC)cc1	-38	1	-2	/	/	/	3.9	22	-0.4	48
CCCCC/C=C/C1=CC(=O)C[C@H](c2ccc(OC)cc2)C1	8	-2	/	-10	-3	-14	0.3	-3	0.2	/
CCCCC(=O)NCCNC(=O)c1cc(OCC(F)(F)F)ccc1OCC(F)(F)F	-7	-4	-6	/	/	/	-4.5	-5	0.3	26
COc1cc2cc(CN(CCN3CCCC3)C(=O)Nc3ccccc3Cl)c(=O)[nH]c2cc1OC	-90	-2	/	/	/	/	0.6	-3	0.4	/
COc1ccccc1NC(=O)CSc1nc2ccccc2c(=O)n1CCNC(C)=O	-9	-7	0	-2	8	-6.5	0.5	-12	0.0	1
Cc1ccc2c(c1)c1c3n2CCCNC3CCC1 (stereo not drawn)	-8	-1	-22	/	/	/	1.7	10	-0.5	9
CC(C)(C)CC(C)(C)NCC(O)COc1ccc2c(c1)CCC2 (stereo not drawn)	5	3	0	-8	-16	27	5.8	7	1.8	46
O=C1Nc2ccccc2C1=Nc1ccc(Br)cc1	7	-5	-22	-3	9	-3.0	-4.0	10	-1.0	-11
Nn1c(Cc2ccccc2)nc2ccccc2c1=O	-6	-3	-1	4	2	1.7	-6.1	-13	-0.2	2
Cc1cccc(C)c1NC(=O)C1CCCN1S(=O)(=O)c1ccccc1 (stereo not drawn)	1	0	-5	3	-7	0.6	-4.8	-11	-0.7	9
Cn1cnc(S(=O)(=O)N2CCN(c3ccc(Cl)cc3)CC2)c1	3	-8	13	5	4	1.1	2.7	6	0.2	7
CCn1cc(CCC(=O)NCCN2CCOCC2)c2ccccc21	-1	-5	2	14	16	-1.5	-0.5	-3	-0.6	-5
COc1ccc(C(=O)CN2C(=O)c3ccccc3S2(=O)=O)cc1	8	0	1	11	7	1.0	4.0	-7	-3.7	-5
O=C(CCl)NN1C(=O)NC(c2ccccc2)(c2ccccc2)C1=O	0	-5	3	13	2	-2.3	1.8	0	0.3	-18
Cc1cc(C(=O)N/N=C/c2cc(Br)c(Br)o2)n[nH]1	/	2	57	-8	-2	-3.0	-2.7	-2	-0.1	-4
COCCCN(C(=O)Cc1coc2cc(C)c(C)cc12)c1c(N)n(Cc2ccccc2)c(=O)[nH]c1=O	2	1	/	20	14	1.3	1.3	-5	-0.1	-6
Cc1cc(C)cc(OC(C)C(=O)Nc2ccc3c(c2)n(C)c(=O)n3C)c1 (stereo not drawn)	-12	-6	29	-18	-19	-0.3	-3.4	16	0.5	-17
CCCC1C(=O)N2C(N(C)C)=Nc3ccc(C)cc3N2C1=O (stereo not drawn)	-13	1	/	/	/	/	3.8	2	1.3	/
COc1ccc(NC(=O)N2CCCC(C(=O)Nc3cccc(C)c3C)C2)cc1 (stereo not drawn)	-4	-1	0	5	18	1.4	0.2	4	0.2	8
Cc1nn(CCOc2ccccc2)c(=O)n1-c1ccc(F)cc1	-2	0	16	/	/	/	2.2	8	-0.1	-3
CC1CCC/C(=N/Nc2nc3ccccc3s2)C1 (stereo not drawn)	97*	7	-27	/	/	/	-3.1	-5	-1.8	20
Cc1ccc(NC(=O)CC2NCCNC2=O)cc1Cl (stereo not drawn)	-10	-3	120*	16	17	2.2	-1.9	-2	0.2	0
Cc1cc(Br)ccc1OCc1nc(-c2cccnc2)no1	-4	-2	-14	/	/	/	-6.4	-11	-2.0	-1
COc1cc(C(=O)Nc2ccc3c(c2)OCO3)ccc1-n1cnnn1	/	4	7	/	/	/	0.5	5	1.3	-10
CCOC(=O)c1c(NC(=O)CSc2nncs2)sc(C)c1C	1	-4	-3	/	/	/	-3.7	3	0.1	/
Cc1noc(C)c1CSc1nnc(-c2ccccc2)n1Cc1ccco1	-5	-1	-6	/	/	/	-1.7	0	1.6	9
CN(C)/C=C/C(=O)c1ccc([N+](=O)[O-])c(CS(=O)(=O)c2ccc(Cl)cc2)c1	-1	-2	2	3	9	1.2	-2.0	-5	-0.1	-3
Cc1csc(NC(=O)CSc2nc3nc(C)cc(C)n3n2)n1	5	2	/	3	7	4.2	5.1	-9	1.5	/
O=C(NNC1CC(=O)N(c2ccccc2)C1=O)c1ccc(COc2ccccc2Cl)o1 (stereo not drawn)	5	-4	-11	-8	-8	-1.3	3.3	-2	-0.5	3
C=CC[C@@H](CC(=O)N(CCO)Cc1ccccc1)C(=O)N[C@@H](C)COC(=O)[C@@H](CC=C)Cc1ccc(F)cc1	1	-2	/	4	4	11	-2.1	-2	1.2	/
COCCNC(=O)[C@@]1(C)C=C[C@@H](Cc2ccccc2)N1C(=O)c1ccccc1	-5	0	25	-2	-1	5.5	-0.6	-2	1.8	-1

Whole records, quoted from the list. Screens in order: ALR inh	Beta apoptosis	Calb FLC	Ecoli rRNA inh	Ecoli rRNA inh OD600	Ecoli rRNA inh RFP	LANA-H2A inh	B2AR ag	A1 inh	T cruzi repl
Record of NC(=O)CC(NC(=O)c1ccccc1)c1ccc(NCc2ccc(F)cc2)c([N+](=O)[O-])c1 (stereo not drawn) = 4	-5	2	/	/	/	-1.4	-3	0.2	0
Record of CCOC(=O)C1=C(CS(=O)(=O)c2ccc(F)cc2)NC(=O)NC1c1cc(OC)c(O)c(OC)c1 (stereo not drawn) = -11	-5	-4	-3	-1	-0.9	-0.1	-2	0.8	-5

The list goes on:
SMILES	ALR inh	Beta apoptosis	Calb FLC	Ecoli rRNA inh	Ecoli rRNA inh OD600	Ecoli rRNA inh RFP	LANA-H2A inh	B2AR ag	A1 inh	T cruzi repl
C=CCNC(=O)CC1C(=O)NCCN1Cc1c(F)cccc1Cl (stereo not drawn)	-4	-3	-2	3	-1	-1.9	2.1	1	0.5	-14
CCCCN(CC)Cc1ccc(CNC(=S)Nc2cccc(F)c2)o1	-1	-2	0	5	5	-4.8	2.6	13	-0.2	27
CSC1=C(C#N)C(c2ccncc2)C(C(=O)Nc2ccccc2)=C(C)N1 (stereo not drawn)	0	-3	-5	-11	-12	3.0	0.6	1	-0.1	-1
Cc1nc2ncnn2c(N2CCCC(C(=O)Nc3ccc4c(c3)CCC4)C2)c1C (stereo not drawn)	92*	57	2	/	/	/	-0.1	3	-0.8	-4
O=C(Cn1cnc2c(nnn2Cc2ccccc2F)c1=O)NCC1CCCO1 (stereo not drawn)	-1	7	0	/	/	/	4.5	2	-0.3	-11
Cc1cccc(NC(=O)c2cc(NC(=O)C3CC=CCC3C(=O)O)ccc2N2CCOCC2)c1 (stereo not drawn)	10	-8	0	/	/	/	-1.9	-11	-0.5	-6
COc1ccc(CCN2Cc3c(cccc3[N+](=O)[O-])C2=O)cc1OC	/	-2	-2	3	-1	-1.3	0.1	12	0.0	5
O=C(OCc1nnc(-c2ccccc2)o1)c1ccc2ccccc2n1	9	-1	0	/	/	/	-4.4	0	0.1	-10
CN1CCN(CC(=O)Nc2cc(N3CCOCC3)ccc2[N+](=O)[O-])CC1	-6	-5	?	4	3	-1.4	-0.1	-6	0.3	6
CCC1=NN(C(=O)c2ccc([N+](=O)[O-])cc2)C(O)(c2ccccc2)C1 (stereo not drawn)	8	/	-7	-7	3	-3.2	-5.2	4	-0.2	16
COc1ccc(CN(C)Cc2nc3cc(OC)c(OC)cc3c(=O)[nH]2)c(OC)c1	-17	0	-5	-2	-5	6.6	-1.8	-6	1.0	2
O=C(/C=C/c1ccccc1)Nc1ccc(C(=O)N2CCCCC2)cc1	-2	-3	40	-1	-3	-1.5	8.7	12	-0.3	-18
O=C(CCC(=O)n1ncc2ccccc21)NCc1ccccc1Cl	-13	-5	-4	3	17	-5.0	-1.1	-4	/	-8
Cc1cc(NC(=S)NC(=O)C2CC2)ccc1Br	1	-3	59	/	/	/	-2.7	-4	-1.8	-5
COc1ccccc1NC(=O)[C@@H]1CCCN1S(=O)(=O)c1ccc(Cl)cc1	7	-1	/	-22	-55	-8.1	1.2	-5	2.3	/
CCc1ccc(C(=O)CN2C(=O)NC(C)(CCc3ccccc3)C2=O)cc1 (stereo not drawn)	-16	0	-12	/	/	/	-1.5	9	-1.4	7
Cc1ccc(NC(=O)CSc2nnc(CNC(=O)c3ccccc3F)o2)cc1Cl	-88	-3	2	-2	-2	-1.4	0.2	-4	-0.2	21
COc1ccc(-c2nc(CN(C)C(C)c3ccon3)c(C)o2)c(C)c1C (stereo not drawn)	-8	-2	-6	-48	-73	-21	1.6	4	-0.2	7
Cc1ccc(CNC(=O)N2CCN(S(=O)(=O)c3ccccc3)CC2)cc1	4	1	-3	3	0	5.9	-0.7	-3	2.9	-10
COc1ccccc1CCC(=O)Oc1ccc(C#N)cc1OC	10	-5	-1	1	3	-1.2	6.5	3	-1.2	-1
